Screening data from PubChem.
HIV Env fusion = inhibitors of HIV Env-mediated cell fusion. HeLa-JRFL Env/CEM21 cell fusion, luciferase. inhibition, % at 12.3 µM. AID 651610. hit rate 1.1% among 360,000;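 active = mean replicate inhibition score of at least 50 and every replicate individually at or above 50; inconclusive = only one of the two criteria met; inactive = mean below 50 and not all replicates reaching 50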;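 also: 0% = plate neutral controls and 100% = maraviroc near 300 nM; one replicate is shown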
UUG fidelity = alters start codon recognition fidelity in yeast. S. cerevisiae UUG-firefly luciferase reporter, luminescence/redox ratio. activity score, % at 18.7 µM. hit rate 0.13% among 350,000. AID 602363;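 active = replicate mean at a twofold rise or more, about +100% in these data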;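 also: firefly luciferase made from a UUG start codon reports start codon fidelity; reporter light over untreated wells divided by growth signal over untreated wells; some hits fall short of that in this replicate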
PABP FP inh = blocks human PABP binding to poly(A) RNA | P11940 | fluorescence polarization | inhibition, % at 35 µM | hit rate 1% among 290,000 | AID 2014;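 active = 50% or more with normal probe brightness, or confirmed in later tests; inconclusive = above 50% with abnormal brightness, or retests that disagree; inactive = below 50% or failed in later tests; about a fifth of its hits are not listed in these tables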;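 also: calls also rest on retests at 20 µM and on dose response follow-up; controls were probe without protein and protein plus probe with vehicle; some compounds called inactive have numbers as strong as hits; many hits fall short of the cut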
Rce1 inh = yeast Ras-converting enzyme inhibition; yeast membranes, quenched prenylated peptide cleavage fluorescence; AID 2563; calls only; Q03530; hit rate 0.27% among 290,000;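 active = fall in fluorescence gain of 50% or more versus controls, with final raw signal at or below 3038400; inconclusive = same 50% fall but final raw signal above 3038400; inactive = fall in fluorescence gain under 50%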;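 also: plate controls were neutral control wells for no effect and wells lacking membranes for full effect; tested at 10 µM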
Target sequence (Q03530 whole entry, looked up): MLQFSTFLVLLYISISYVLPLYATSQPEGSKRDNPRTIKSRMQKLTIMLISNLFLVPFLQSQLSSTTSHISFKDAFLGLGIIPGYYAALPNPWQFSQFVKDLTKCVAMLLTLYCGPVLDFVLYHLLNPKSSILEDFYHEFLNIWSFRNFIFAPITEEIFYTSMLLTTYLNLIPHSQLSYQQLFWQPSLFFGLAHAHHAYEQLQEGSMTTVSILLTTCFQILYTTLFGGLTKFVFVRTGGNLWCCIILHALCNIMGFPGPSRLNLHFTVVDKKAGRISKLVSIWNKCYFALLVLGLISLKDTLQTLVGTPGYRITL
MT1-MMP act inh = inhibitors of human MT1-MMP activation | P50281 | HT1080 RFP-PRO-GFP cells, GFP/RFP ratio fluorescence, overnight; percent of plate control window, DMSO zero | GFP/RFP ratio change, % at 20 µM | hit rate 0.061% among 360,000 | AID 651647;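 active = GFP/RFP ratio change of at least 30% with cell ATP level not reduced by more than half and red fluorescence within 50% of control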; also: strong numbers were not always called active
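Test system: HT1080 RFP-PRO-GFP cells; Benchmarks: DMSO and RFP-L50D-GFP cell wells; Timing: cells overnight before dosing, compound overnight, 37 °C, 5% CO2; Compound: one 20 µM compound dose with 1% DMSO; Read-out: GFP/RFP fluorescence ratio.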
eIF4H inh = inhibitors of RNA binding by human eIF4H | inhibition, % at 35 µM | Q15056 | eIF4H fluorescence polarization binding assay | hit rate 0.94% among 290,000;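 active = 50% or more with normal probe brightness, or confirmed in later tests; inconclusive = above 50% with abnormal brightness, or retests that disagree; inactive = below 50% or failed in later tests; about a fifth of its hits are not listed in these tables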;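 also: calls also rest on retests at 20 µM and on dose response follow-up; 0% = protein and probe with vehicle and 100% = probe without protein; strong numbers were not always called active; many hits fall short of the cut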
CSC inhib = blocks cancer stem cells; cancer stem cell-like cells viability, luminescence; hit rate 1.1% among 300,000; AID 2717; inhibition, % at 7.5 µM;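 active = mean at 75% or more and at least half the replicates too; inconclusive = mean and replicates disagree; tested in HMLE shEcad cells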;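 also: 0% = median of negative and 100% = median of positive control wells; the first replicate is given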
eIF4H inh retest = further read-out of eIF4H inh, marked with its call; inhibition, %; compound at 20 µM; confirmation average;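 mean of two retest wells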
PABP FP inh retest = further read-out of PABP FP inh, marked with its call; inhibition, %; compound at 20 µM; confirmation repeats;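 mean of two retest wells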
MT1-MMP act inh RFP = further read-out of MT1-MMP act inh, marked with its call; RFP signal change, %; measured here: RFP expression control read;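 0 = vehicle wells; hits needed this value within 50% of zero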
Numbers without * were called inactive; i = inactive; ? = inconclusive; . = not tested or not shown; & = joins results of further samples; [ ] = another dose, or the depositor's remark.

SMILES | HIV Env fusion | UUG fidelity | PABP FP inh | Rce1 inh | MT1-MMP act inh | MT1-MMP act inh RFP | eIF4H inh | CSC inhib | others
COC(=O)c1ccc(NC(=O)CSc2nnc(C(C)NC(=O)c3ccccc3Cl)n2C)cc1 (stereo not given) | . | 4 | -6 | i | 3 | 4 | 7 | 11
O=C(NC1CCCC1)C(c1ccccc1F)N(C(=O)c1ccco1)C1CCCC1 (stereo not given) | . | 5 | 8 | i | 1 | 2 | -6 | .
O=C(Nc1ccccc1[N+](=O)[O-])c1cc(S(=O)(=O)Nc2ccccn2)ccc1Cl | -4 | 2 | 8 | i | 4 | 3 | 6 | .
C=CCn1c(NC)cc(=O)n(C)c1=O | -21 | -20 | -3 | i | 4 | 1 | -3 | .
CC(=O)Nc1ccc(Nc2ncnc3c2cnn3-c2ccc(C)cc2C)cc1 | 0 | -1 | 1 | i | -6 | -7 | -5 | -7
CN(C(=O)c1ccc(NC(=O)Cc2ccc(NC(=O)C3CCCN(C(=O)CCc4ccccc4)C3)cc2)cc1)C1CCCC1 (stereo not given) | 31 | -13 | . | . | 6 | -26 | . | .
COc1nc(-c2ccc(C)cc2)ccc1-c1noc(-c2cccnc2)n1 | -116 | -15 | -3 | i | -5 | 2 | -13 | -11
CCOC1=C2[C@@H](CN(S(=O)(=O)c3ccc(C)cc3)[C@H]2c2ccccc2Cl)[C@H]2C(=O)N(Cc3ccccc3)C(=O)[C@H]2C1 | -2 | -6 | . | . | -6 | -6 | . | .
COc1ccc(OCC(O)CNC(=O)c2ccccc2)cc1 (stereo not given) | -12 | . | -4 | i | 0 | 2 | -4 | 2
Cc1ccc(C(=O)COC(=O)c2cc(=O)[nH]c3ccccc23)cc1C | -12 | -9 | -2 | i | 2 | 0 | -1 | -16
O=C(c1cn(Cc2ccccc2)nc1-c1cccnc1)N1CCc2ccccc2C1 | . | -17 | . | . | -3 | -1 | . | -14
CCN1CC=C2C(C#N)=C(N)C(C#N)(C#N)[C@H](c3ccoc3)[C@H]2C1 | . | -16 | ? | i | -84 | 7 | ? | -20
O=C(COc1coc(CN2CCc3ccccc32)cc1=O)Nc1ccc([N+](=O)[O-])cc1 | -112 | -8 | . | i | 3 | -5 | . | 2
COc1ccccc1C(=O)NCC(=O)N1CCN(C/C=C/c2ccccc2)CC1 | 28 | -15 | . | . | 3 | -3 | . | -11
COc1cccc(OC)c1C(=O)Nc1ccc(N2CCCCC2)cc1 | 22 | -16 | 7 | i | -10 | -6 | -8 | -8
N#CCCN(C(=O)COc1ccc(Br)cc1F)c1ccc(F)cc1 | 20 | . | -4 | . | 1 | 2 | 3 | -9
CCN(CC)C(=O)c1ccc2c(c1[N+](=O)[O-])C(=O)c1ccccc1C2=O | . | . | 13 | i | . | . | 6 | -4
O=C(O)c1ccccc1C(=O)NC1CCN(c2nccc(C(F)(F)F)n2)CC1 | 8 | -10 | -5 | i | -1 | 3 | 0 | -11
Cn1nc(C(=O)NCc2cccnc2)c2ccccc2c1=O | 26 | -13 | 1 | i | 17 | 6 | -8 | -7
CSc1nc(-c2ccccc2)cc(C)c1C#N | -26 | . | -2 | i | -2 | 1 | -6 | 6
COc1ccc(NC(=O)C(=O)N/N=C/c2cccnc2)cc1 | -15 | . | -7 | i | 0 | 0 | -6 | -13
O=C(c1ccco1)N1CCN(C(=O)C2CC(c3ccc(Cl)c(Cl)c3)=NO2)CC1 (stereo not given) | . | 9 | -6 | i | -2 | 2 | 1 | 23
S=C1SCN(Cc2ccccc2)CN1Cc1ccco1 | 1 | 0 | . | . | -9 | 5 | . | .
CCOc1ccc2[nH]c(=O)c(C(c3nnnn3Cc3ccco3)N3CCCC(C)C3)cc2c1 (stereo not given) | . | -5 | 51 | i | -3 | 8 | 30* | -6 | eIF4H inh retest=81*;PABP FP inh retest=45
CCOC(=O)N1CCN(C(=O)c2ccc3c(c2)N(C)C(=O)/C(=C\c2ccc(OCC)c(OC)c2)S3)CC1 | 8 | -7 | -9 | i | -2 | -19 | -7 | 37
Cc1cccc(OCCOc2ccccc2C=C(C#N)C#N)c1 | -4 | . | 3 | i | -3 | 0 | -5 | 29
CCCCNc1ncnc2c1nnn2Cc1ccccc1Cl | -4 | 6 | -1 | i | 2 | -1 | 3 | -8
Cc1cc(=O)cc(C)n1-c1ccc(Cl)c(Cl)c1 | -20 | 4 | -2 | i | 3 | 4 | -7 | 0
CCOC(=O)c1c(Nc2ccc(Cl)cc2)sc(/C=C2\C=Nc3ccccc32)c1O | -12&-19 | -9&-9 | 115* | i | -28&-69 | -3&-6 | ? | . | PABP FP inh retest=122*
O=C(NCC[C@@H]1CC[C@@H](NS(=O)(=O)Cc2ccccc2)[C@@H](CO)O1)C1CC1 | -1[16.7 µM] | 3 | . | . | -2 | 6 | . | .
COC(=O)c1c(C(=O)OC)c2ccccn2c1C(=O)c1ccccc1 | 9 | 0 | -8 | i | 2 | -2 | -7 | -5
CC(=O)NCCc1nc2cc(NC(=O)c3ccc(Cl)cc3)ccc2n1C | -39 | . | 2 | i | -4 | -1 | 17 | -3
O=C(NCCc1ccc2c(c1)OCCO2)c1ccc([N+](=O)[O-])cc1Cl | 10 | . | -17 | . | 3 | 8 | 3 | -11
Cc1cc(C)c[n+](CC(=O)c2ccc(-c3ccccc3)cc2)c1 | 6 | . | -2 | i | 0 | 0 | 6 | 9
NNC(=O)c1cc(-c2ccc(O)cc2)nc2ccc(Br)cc12 | -21 | -8 | -8 | i | 7 | 7 | -4 | 3
Cc1cccc(C)c1NC(=O)c1ccc2sc([C@H]3C[C@H](O)[C@@H](CO)O3)nc2c1 | 6 | -6 | . | . | 2 | 0 | . | .
N#Cc1ccc(NC(=O)c2cc(-c3cccs3)on2)cc1 | 5 | -19 | -10 | i | 0 | 5 | -2 | -1
Cc1cc(C(=O)CN2C(=O)NC3(CCCc4sccc43)C2=O)c(C)n1-c1ccccc1 (stereo not given) | -7 | -10 | 16 | i | 2 | -6 | 3 | 6
COCC(=O)N1CCN(c2nc3ccccc3o2)CC1 | -20 | -6 | -15 | i | 2 | 1 | 0 | -2
C=CCNC(=O)NC(=O)COC(=O)CCCSc1nc2ccccc2[nH]1 | -11 | -26 | 5 | i | -3 | -2 | -2 | 11
CC(C)Oc1cc(NC(=O)CS(=O)(=O)CC(=O)N(C)C)c(Cl)cc1Cl | -3 | . | -3 | . | 1 | 3 | 6 | -1
Cc1ccccc1C(=O)N1CCN(c2ccc(NC(=O)c3ccco3)cc2Cl)CC1 | . | 15 | -7 | i | -2 | -17 | -17 | -8
CC(C)COc1ccc(C(=O)Nc2ccc(N3CCOCC3)cc2N2CCOCC2)cc1 | 25 | -12 | -1 | i | 3 | -1 | -5 | 5
CCOc1ccc(N2C(=O)CC(SC(=NC)Nc3ccc(F)cc3)C2=O)cc1 (stereo not given) | -22 | -4 | 14 | . | -14 | -5 | 4 | -11
O=C(COc1ccc(Br)cc1)NC(=S)Nc1ccccc1N1CCOCC1 | 0 | 5 | -2 | i | 2 | 0 | -16 | 2
CN(CC(=O)Nc1ccc(F)cc1)C(=O)CCc1nc2ccccc2c(=O)[nH]1 | -5 | -12 | . | i | 2 | -1 | . | 1
CC1CCN(C(=O)Cn2c(=O)oc3cc(S(=O)(=O)N4CCCCC4)ccc32)CC1 | 7 | -6 | -4 | i | -3 | -3 | -12 | -2
NC(=O)CCC(NS(=O)(=O)c1ccc(Cl)cc1)C(=O)NCC1CCCCC1 (stereo not given) | 5 | -13 | 2 | i | -5 | 0 | 0 | -1
CN1CCN(S(=O)(=O)c2ccc(N(C)Cc3ccc(OC(F)F)cc3)c([N+](=O)[O-])c2)CC1 | 17 | . | . | i | 6 | -11 | . | .
CC1(C)CC(=O)C=C(Nc2ccccc2O)C1 | . | -2 | -8 | i | 7 | 11 | -16 | 3
O=[N+]([O-])c1ccc(S(=O)(=O)N2CCN(Cc3c[nH]c4ccccc34)CC2)cc1 | 30 | -3 | 12 | i | . | . | -1 | .
O=C(NNc1ccc(-c2csnn2)cc1)c1ccccc1C(F)(F)F | -6 | -1 | 2 | i | -1 | 3 | -3 | 13
Cc1nc(S(=O)(=O)N2CCOCC2)c(C#N)c(C)c1Cl | . | 2 | 7 | i | -2 | -3 | -1 | 3
CCCn1c(SCC(=O)NCCCN2CCCC2=O)nc2ccccc2c1=O | . | -1 | . | . | -2 | 1 | . | -12
O=C(Nc1ccc(N2CCN(C(=O)c3ccc(Cl)cc3)CC2)cc1)c1cccs1 | -5 | -6 | 3 | i | 2 | 0 | -3 | -5
Cc1nc(NC(=O)COC(=O)CCc2nc3ccccc3s2)c(Cl)cc1Cl | 5 | -5 | -22 | i | 7 | 4 | -5 | -16
COc1cc(CC(=O)OCC(=O)Nc2ccc(N3CCOCC3)cc2)cc(OC)c1OC | -1 | 1 | -1 | i | -5 | -2 | -6 | -22
CCC1Oc2ccc(C)cc2N(CC(=O)NCCC2=CCCCC2)C1=O (stereo not given) | . | . | -5 | i | -1 | -2 | -2 | 5
CC1Cc2ccccc2N1C(=O)COC(=O)c1ccc(N(C)C)cc1 (stereo not given) | . | -2 | . | . | -1 | -4 | . | 12
O=C(NCc1cccs1)C1CCCN(c2nc3ccccc3o2)C1 (stereo not given) | 17 | -9 | -8 | i | 2 | 2 | -8 | 18
Remaining list, next part:
SMILES | HIV Env fusion | UUG fidelity | PABP FP inh | Rce1 inh | MT1-MMP act inh | MT1-MMP act inh RFP | eIF4H inh | CSC inhib | others
C=CCNc1nc(-c2ccccn2)nnc1-c1ccccc1 | -126 | -30 | -9 | i | 3 | -1 | -4 | -13
CC(=O)N1CCN(CC(=O)Nc2ccccc2Sc2ccc(Cl)cc2)CC1 | 11 | . | -5 | i | -12 | -11 | 1 | -11
Cc1ccc(NC(=O)c2ccc(F)cc2)cc1S(=O)(=O)N1CCCCCC1 | 8 | . | -15 | i | -4 | -23 | -12 | 29
Fc1ccc2[nH]c3c(N4CCN(c5ccccc5)CC4)ncnc3c2c1 | . | . | -9 | i | 0 | -30 | 0 | 4
C/C(=N\NC(=O)c1nn(C)cc1Cl)c1ccncc1 | -36 | -11 | -8 | i | 2 | 6 | -11 | 2
CCOC(=O)c1sc(=NC(=O)c2cc(OC)c(OC)c(OC)c2)n(C)c1C | . | -4 | 1 | i | 7 | -4 | 0 | -5
COCC(=O)Nc1nc(-c2ccccc2)ns1 | 0 | 4 | ? | i | 10 | 1 | 3 | -3
COc1cccc(NC(=O)NC2CCCc3ccccc32)c1 (stereo not given) | 12 | -9 | -3 | i | -3 | -4 | -6 | 0
CCOC(=O)C1CCCN(S(=O)(=O)c2ccc3c(c2)N(C(C)=O)CCO3)C1 (stereo not given) | -1 | -5 | -3 | i | 0 | -6 | 2 | -20
CCn1c(CSc2nnc(-c3ccoc3C)n2C)nc2cc(S(=O)(=O)N(C)C)ccc21 | 7 | -30 | . | i | 0 | 5 | . | -7
O=C(NC1CC1)c1cccc(S(=O)(=O)Nc2ccccc2F)c1 | 10 | -37 | . | i | -3 | 3 | . | -14
COc1cc(/C=N/N(CCO)C2=NS(=O)(=O)c3ccccc32)cc(OC)c1OC | 8 | -16 | 3 | i | -2 | -3 | -6 | 0

An unsorted share of the library, and some 2.9% of all compounds hit somewhere here.
